Bioassay records (PubChem BioAssay)
INS promoter inh – inhibitors of insulin promoter-driven GFP, primary screen, imaging, TRM-6 cells (human fetal islet line), eGFP reporter, cell count; reporter expression induced with tamoxifen; inhibition, % at 2 µM; 0.9% of 130,000 active;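 active = inhibition above the mean plus 3 SD, with well images judged a real hit on visual review, cut at about 60% in these data, passing the limit was not always enough; inconclusive = inhibition over the cutoff but images rejected on review; inactive = inhibition not above the cutoff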
RGS16-Gao – modulators of RGS16 binding to Galphao, primary screen, biochemical, human proteins, multiplexed bead flow cytometry; Regulator of G-protein signaling 16 (Homo sapiens) + Guanine nucleotide-binding protein …; bead-based flow cytometry RGS16-Galphao binding, fluorescence; actives lie on both sides; binding response (% of control), % at 10 µM; 0.38% of 220,000 active; AID 1441, 2008;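 active = below 25% or above 175%, edge rows of some plates excepted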;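 note: Galphao activated by GDP with aluminum fluoride before binding; 100% = wells without compound and 0% = beads without RGS; some results beyond the cut were filed as inactive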
GALR2 agonist – GALR2 receptor agonists, primary screen, cell-based; Galanin receptor type 2 (Homo sapiens), O43603; GALR2-expressing cells, agonist activation read-out; activation, %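 (tested at 5 µM)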; 0.48% of 140,000 active;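 active = above mean plus 3 SD of all compounds, about 5% in these data, not always enough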;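 note: 0% = vehicle buffer wells and 100% = reference agonist at full effect; tested in CHO reporter cells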
HSV replic up – enhancers of HSV replication in host cells, fold increase, host cell viability | HSV replication augmentation in cells | maximum fold increase | 0.005% of 220,000 active;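 active = peak rise of 1.5-fold or more in the series; inconclusive = self-fluorescent or not available for retest; tested in PC3 cells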;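 note: first round at 10 µM; read as green reporter fluorescence; hits show the peak of a series up to 25 µM; 1 = signal of infected wells without compound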
PKD1 inh – inhibitors of human PKD1 kinase, biochemical, fluorescence polarization | Serine/threonine-protein kinase D1 (Homo sapiens), Q15139 | PKD1 kinase fluorescence polarization assay | inhibition, %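 (about 10 µM by stock and volumes)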 | 0.056% of 200,000 active | AID 797, 2007;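 active = inhibition of 50% or more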;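 note: controls were vehicle for no effect and a reference inhibitor for full effect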
Target sequence (Q15139 whole entry, looked up): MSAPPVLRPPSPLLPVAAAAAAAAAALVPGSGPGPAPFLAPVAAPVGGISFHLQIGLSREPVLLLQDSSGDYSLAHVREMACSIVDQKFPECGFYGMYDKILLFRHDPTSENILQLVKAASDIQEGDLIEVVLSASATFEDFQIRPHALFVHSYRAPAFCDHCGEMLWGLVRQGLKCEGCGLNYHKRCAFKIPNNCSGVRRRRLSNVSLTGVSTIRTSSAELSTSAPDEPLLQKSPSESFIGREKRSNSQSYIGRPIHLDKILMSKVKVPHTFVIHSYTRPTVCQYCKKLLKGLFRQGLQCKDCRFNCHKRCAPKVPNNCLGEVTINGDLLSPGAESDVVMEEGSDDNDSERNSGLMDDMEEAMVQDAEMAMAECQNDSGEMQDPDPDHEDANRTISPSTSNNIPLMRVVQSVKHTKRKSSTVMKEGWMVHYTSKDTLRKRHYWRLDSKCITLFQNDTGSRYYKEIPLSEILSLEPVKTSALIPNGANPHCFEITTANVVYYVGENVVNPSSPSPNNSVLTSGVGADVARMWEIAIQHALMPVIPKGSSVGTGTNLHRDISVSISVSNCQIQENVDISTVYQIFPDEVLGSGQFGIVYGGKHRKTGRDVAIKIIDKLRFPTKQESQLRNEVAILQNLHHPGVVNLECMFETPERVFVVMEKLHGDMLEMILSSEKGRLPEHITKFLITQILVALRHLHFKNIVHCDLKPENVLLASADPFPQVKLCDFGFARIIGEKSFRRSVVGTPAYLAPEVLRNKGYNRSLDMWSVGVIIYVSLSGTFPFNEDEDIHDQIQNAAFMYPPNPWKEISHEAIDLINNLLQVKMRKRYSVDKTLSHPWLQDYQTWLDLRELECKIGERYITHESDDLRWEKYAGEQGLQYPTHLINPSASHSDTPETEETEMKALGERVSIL
INS promoter inh cell count – recorded beside INS promoter inh, whose call it bears; normalized cell count, %; measured here: cell count, toxicity; reference of the scale not given here;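 cells exposed to compound for 48 h; stained nuclei by imaging scaled within each plate; lower means fewer cells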
HSV replic up primary fold – recorded beside HSV replic up, whose call it bears; fold increase; compound at 10 µM; measured here: primary screen fold increase 10 uM; tested in PC3 cells;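 GFP signal in the first replicate; 1 = infected wells without compound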
* marks the source's active call; other numbers are inactive results; i = inactive; ? = inconclusive; · = not tested or not shown. Random draw from the library; any-hit rate near 1.3%.

cpd	smiles	INS promoter inh	INS promoter inh cell count	RGS16-Gao	GALR2 agonist
1	Cc1cc(C)n2c(SCC(=O)Nc3c(C)n(C)n(-c4ccccc4)c3=O)nnc2n1	-42	105	101	-1.6
2	O=S(=O)(c1cnc[nH]1)N1CCc2ccccc21	·	·	100	-1.1
3	O=C(NC1CCCC1)c1ccc(COCC(F)(F)C(F)F)o1	-38	93	96	0.1
4	COC(=O)Cn1c(=O)n(CCc2ccccc2)c(=O)c2c3c(sc21)CCCC3	7	94	101	-0.7
5	CC1CCC(NC(=O)C2CCN(C(=O)NC3CCCCC3)CC2)CC1 (centres undefined)	·	·	105	-1.9
6	C[C@H](NC(N)=O)C(=O)OCC(=O)NCc1cccs1	6	136	119	·
7	O=S(=O)(Nc1cccc(-c2cn3cccnc3n2)c1)c1ccc(Cl)cc1	·	·	120	-0.4
8	CCCCCOc1ccc(C(=O)C(c2ccccc2)N2CCOCC2)cc1 (centres undefined)	31	105	107	-2.6
9	CC(=O)C1=C(O)C(=O)N(c2nnn(C)n2)C1c1cccs1 (centres undefined)	·	·	118	-3.1
10	Cc1c(NS(=O)(=O)c2ccc(Cl)c(C(=O)OC(C)C(=O)NCc3ccco3)c2)c(=O)n(-c2ccccc2)n1C (centres undefined)	-40	124	99	·

cpd	HSV replic up	HSV replic up primary fold	PKD1 inh
1	i	0.92	-11
2	i	0.98	-18
3	i	0.98	1
4	i	1.1	-8
5	i	0.83	1
6	i	0.91	-1
7	i	0.94	-3
8	i	1.1	-5
9	i	1.1	7
10	i	1	-3

Additional records follow.
cpd	smiles	INS promoter inh	INS promoter inh cell count	RGS16-Gao	GALR2 agonist
11	C=CCN1C(=O)C2(C(C(=O)c3ccc(C)o3)=C(O)C(=O)N2CCCN2CCOCC2)c2ccccc21 (centres undefined)	·	·	113	-0.3
12	CC(=O)OC[C@]1(OC(C)=O)C[C@@]23CC[C@H]4[C@@](C)(CCC[C@@]4(C)C(=O)O)[C@@H]2CC[C@@H]1C3	5	84	104	0.1
13	CC(=O)Nc1ccc(S(=O)(=O)NCC(=O)OCc2cc(=O)oc3ccc4ccccc4c23)cc1	14	103	94	0.1
14	O=C(CSc1ncnc2c1nnn2-c1ccc(F)cc1)N1CCN(c2ccccc2)CC1	25	70	·	-1.5
15	CC(C)C(=O)NC(=S)Nc1ccccc1C(F)(F)F	16	103	102	0.0
16	COc1cc(C(=O)NC2CCCCC2)ccc1OCc1ccc(Cl)cc1Cl	-7	109	108	0.1
17	CCCOc1ccc(/C=C/C(=O)Nc2ccc([N+](=O)[O-])cc2C)cc1	-4	118	100	-3.1
18	CC(C)C[C@H](N)c1nnc(SCc2ccc(Cl)cc2)o1	·	·	111	·
19	Cc1csc(NC(=O)C2C3C=CC(C3)C2C(=O)O)n1 (centres undefined)	-9	115	-20*	-1.1
20	CCC(C)Sc1nc(O)cc(=O)[nH]1 (centres undefined)	8	112	131	0.6

cpd	HSV replic up	HSV replic up primary fold	PKD1 inh
11	i	0.88	11
12	i	0.71	-4
13	i	0.93	-3
14	·	·	4
15	i	0.91	12
16	i	0.95	-3
17	i	0.99	-5
18	i	1.1	·
19	i	1.1	11
20	i	1.2	-7

Of the compounds above, three contain a thiophene ring, fused or not.
cpd	smiles	INS promoter inh	INS promoter inh cell count	RGS16-Gao	GALR2 agonist
4	COC(=O)Cn1c(=O)n(CCc2ccccc2)c(=O)c2c3c(sc21)CCCC3	7	94	101	-0.7
6	C[C@H](NC(N)=O)C(=O)OCC(=O)NCc1cccs1	6	136	119	·
9	CC(=O)C1=C(O)C(=O)N(c2nnn(C)n2)C1c1cccs1 (centres undefined)	·	·	118	-3.1

cpd	HSV replic up	HSV replic up primary fold	PKD1 inh
4	i	1.1	-8
6	i	0.91	-1
9	i	1.1	7

Going on with the list:
cpd	smiles	INS promoter inh	INS promoter inh cell count	RGS16-Gao	GALR2 agonist
21	Cc1cc(C(=O)NC(C)c2ccc3c(c2)OCO3)cs1 (centres undefined)	-425	40	105	-4.0
22	O=C(c1cc2ccccc2o1)N1CCN=C1SCc1cccnc1	-91	94	109	-1.6
23	Cc1ccc(-n2c(SCC(=O)N3CC(=O)Nc4ccccc43)nc3ccccc3c2=O)cc1C	18	102	108	1.2
24	N/C(CCN1CCOCC1)=N/O	3	116	129	-0.5
25	Cc1ccc(CN(C(=O)Cn2nnc3ccccc32)C(C(=O)NCc2ccco2)c2cccs2)cc1 (centres undefined)	-9	98	100	0.4
26	COc1ccccc1NC(=S)Nc1cccc(F)c1	·	·	·	-1.7
27	CCN1CCN(C(=O)NC2CC(=O)N(c3ccc(OC)cc3)C2)CC1 (centres undefined)	58	135	103	·
28	Cc1ccc(C(=O)c2cc(C)sc2NC(=O)CN2CCN(C(=O)c3ccco3)CC2)cc1	27	121	101	0.4
29	CCN(CC)S(=O)(=O)c1ccc(N2CCOCC2)c(NC(=O)Cc2cccc3ccccc23)c1	-62	89	113	0.1
30	Cc1cc(=O)oc2ccc(OC(=O)CC(C)C)cc12	·	·	96	·

cpd	HSV replic up	HSV replic up primary fold	PKD1 inh
21	i	0.79	-6
22	i	0.99	-20
23	i	0.92	2
24	i	0.66	-6
25	i	1	-3
26	i	0.9	2
27	i	0.95	-1
28	i	0.9	-9
29	i	0.96	-14
30	i	0.98	-8

Of the compounds above, 2 contain an NH in an aromatic ring:
cpd	smiles	INS promoter inh	INS promoter inh cell count	RGS16-Gao	GALR2 agonist
2	O=S(=O)(c1cnc[nH]1)N1CCc2ccccc21	·	·	100	-1.1
20	CCC(C)Sc1nc(O)cc(=O)[nH]1 (centres undefined)	8	112	131	0.6

cpd	HSV replic up	HSV replic up primary fold	PKD1 inh
2	i	0.98	-18
20	i	1.2	-7

Later entries
cpd	smiles	INS promoter inh	INS promoter inh cell count	RGS16-Gao	GALR2 agonist
31	C/C(CC(=O)Nc1cccc(Cl)c1)=N\NC(=O)Cc1ccc(Cl)cc1	·	·	101	-2.0
32	Cn1cccc1C(C(=O)NC1CCCCC1)N(C(=O)Cc1cccs1)C1CC1 (centres undefined)	·	·	98	0.6
33	O=C(/C=C/c1ccco1)Nc1ccc(S(=O)(=O)N2CCOCC2)cc1	-65	154	97	·
34	O=C(O)c1ccccc1NN=C1CCCCC1	-10	73	139	0.0
35	CCOc1cc(S(=O)(=O)NCc2ccncc2)c(C)cc1C	-21	121	94	·
36	CCN1CC=C2C(C#N)=C(N)C(C#N)(C#N)C(CCc3ccccc3)C2C1 (centres undefined)	-85	118	104	1.4
37	COc1ccc(C(=O)N2CCc3ccccc32)cc1	6	66	95	-3.0
38	CCOC(=O)C1=C(C)NC(C)=C(C(=O)OCC)C1C(=O)OCC(=O)N(C)C	·	·	104	·
39	COc1ccc(-c2cc(C(=O)N3CCCc4ccccc43)no2)cc1	19	121	105	-2.3
40	CCN(CC)c1cc(NCCO)c([N+](=O)[O-])c2nonc12	·	·	99	·

cpd	HSV replic up	HSV replic up primary fold	PKD1 inh
31	i	1	1
32	i	0.89	-17
33	i	1.1	-6
34	i	1	-6
35	i	1.1	3
36	?	·	8
37	i	0.98	-7
38	i	1	·
39	·	·	-6
40	i	0.84	2

Carrying on:
cpd	smiles	INS promoter inh	INS promoter inh cell count	RGS16-Gao	GALR2 agonist
41	Cc1ccc(N(CC(N)=O)C2SC(=O)N(C)C2=O)cc1 (centres undefined)	-89	87	102	-0.5
42	COCCOc1nc2c(c(=O)n(C)c(=O)n2C)n1Cc1cccc(OC)c1	-38	56	98	-1.7
43	CC(=O)c1cnc(Nc2cccc(C)c2)s1	·	·	108	·
44	Cc1cc(NC(=O)CSc2nc3c(sc4ccccc43)c(=O)n2CCCN2CCOCC2)n[nH]1	-21	93	101	0.7
45	CN1CCN(S(=O)(=O)c2ccc3ccccc3c2)CC1	·	·	98	-1.9
46	CC(=O)n1cc(-c2ccncc2)c2ccccc21	·	·	106	-1.9
47	CCN(CC)c1ccc(C2=NNC(=O)CC2C)cc1[N+](=O)[O-] (centres undefined)	-4	97	108	-3.7
48	CS(=O)c1ccccc1-c1nc(-c2ccc(Cl)cc2)no1 (centres undefined)	·	·	96	·
49	CCOc1ccccc1NC(=O)C1=C(C)NC(=S)NC1c1cccs1 (centres undefined)	23	107	103	-0.9
50	CC(CCc1ccccc1)NC(=O)CSc1nnnn1C (centres undefined)	-55	99	105	-1.2

cpd	HSV replic up	HSV replic up primary fold	PKD1 inh
41	i	0.93	3
42	i	0.82	3
43	i	0.91	6
44	i	0.69	4
45	i	1	12
46	i	1.1	-4
47	i	0.97	1
48	i	1	1
49	i	0.8	-16
50	i	0.87	9

(continued)
cpd	smiles	INS promoter inh	INS promoter inh cell count	RGS16-Gao	GALR2 agonist
51	O=C(c1cccc(Cl)c1)N1CCC(=O)N(C(COCc2ccccc2)Cc2ccccc2)CC1 (centres undefined)	-15	94	98	-0.9
52	O=C(COc1ccc(NC(=O)c2ccccc2[N+](=O)[O-])cc1)c1ccc(F)cc1	·	·	97	·
53	CCCCN(C)C(=O)C1CCN(C/C(C)=C/c2ccccc2)CC1	19	111	103	-0.6
54	Cc1ccc(NC(=S)NCCN(C2CCCCC2)C2CCCC2)cc1	·	·	104	·
55	Cc1c(Cl)c(C(=O)N2CCCC2)nn1C	-23	112	103	-1.0
56	CC1C=CCC2C(=O)N(c3ccc(OC(=O)c4cccs4)cc3)C(=O)C12 (centres undefined)	·	·	102	·
57	COc1cccc(OCc2cc(C3Nc4ccccc4C(=O)N3Cc3ccco3)ccc2OC)c1 (centres undefined)	68	108	99	-1.5
58	CCOC(=O)c1cc(C#N)c(N2CCCC2)nc1-c1ccccc1	-62	114	103	-1.4
59	N#C/C(=N/Nc1ccc(S(=O)(=O)N2CCOCC2)cc1)C(N)=O	·	·	101	·
60	COc1cccc(NC(=O)Cn2c(=O)c3c(ncn3Cc3ccccc3)n(Cc3ccccc3)c2=O)c1	-48	104	100	-4.1

cpd	HSV replic up	HSV replic up primary fold	PKD1 inh
51	i	0.8	2
52	i	0.97	-8
53	i	0.72	4
54	i	0.9	-1
55	i	0.93	-13
56	i	0.97	0
57	i	0.79	-8
58	i	1	-9
59	i	0.96	-3
60	i	0.88	-4

The listing continues.
cpd	smiles	INS promoter inh	INS promoter inh cell count	RGS16-Gao	GALR2 agonist
61	Cc1ccccc1NC(=O)CNc1ccccc1C(=O)NCc1ccco1	30	160	37	-4.3
62	CCn1c(N)nc2ccccc21	23	58	215	-0.1
63	CCOC(=O)C1CCCN(Cc2ccc(OCC)cc2)C1 (centres undefined)	-64	105	107	-1.9
64	COc1ccc(OC)c(Nc2nc(N)nc(-c3cc4ccccc4o3)n2)c1	0	175	101	-1.5
65	C=CCSC(CC)(CC)C(N)=O	·	·	98	·
66	NC(=O)c1ccccc1NC(=O)CCc1ccccc1	-19	100	101	-1.6
67	Cc1sc(NC(=O)c2ccco2)c(C(c2cccnc2)N2CCCC2)c1C (centres undefined)	23	126	101	-2.4
68	O=C(c1ccccc1F)N1CCN(S(=O)(=O)c2ccc(S(=O)(=O)N3CCCCCC3)cc2)CC1	·	·	100	·
69	CC(=O)N1N=C(c2ccco2)CC1c1cc2ccc(C)cc2nc1Cl (centres undefined)	·	·	100	·

cpd	HSV replic up	HSV replic up primary fold	PKD1 inh
61	i	0.87	-1
62	i	0.98	-7
63	i	0.91	-10
64	i	0.8	-4
65	i	1.4	·
66	i	0.99	-8
67	i	0.97	1
68	i	0.87	·
69	i	1	·
